Source: PubChem
H5N1 CPE = MDCK cell protection from H5N1 avian flu. cytopathic effect, luminescence, 72 h; active compounds read high; no value below 0 was filed and about half of the inactive calls have no number; reference of the scale not given here. inhibition, % at 50 µM. hit rate 0.07% among 96,000. AID 740, 2007; in the data active means inhibition above about 25%
* marks the source's active call; other numbers are inactive results. Only part of the results is shown (hit frequency here may not be typical).

C=CCn1c(O)c(C(C)=Nc2cc(OC)ccc2OC)c(=O)[nH]c1=O was read as H5N1 CPE 2.6.
O=C(CSc1nnc(-c2ccc(OC(F)F)cc2)o1)NCc1cccs1 was read as H5N1 CPE inactive.
For CCOc1cc(C(=O)Nc2ncccn2)cc(OCC)c1OCC the results were H5N1 CPE inactive.
For CC1CN(Cc2nc3c(c(=O)n(C)c(=O)n3C)n2Cc2cccc(Cl)c2)CC(C)O1 (stereo unspecified) the results were H5N1 CPE 1.7.
`Cc1ccc(NC2SC(=O)N(Cc3cccc(C(=O)O)c3)C2=O)cc1` (stereo unspecified) gave H5N1 CPE 0.0.
COC(=O)c1ccc(NC(=O)CSc2nnc(COc3ccc4c(c3)CCCC4)o2)cc1 was read as H5N1 CPE 0.8.
Cc1cc(NC(=O)c2c([N+](=O)[O-])cnn2C)no1 was read as H5N1 CPE inactive.
For CCOC(=O)Nc1ccc2c(CN3C(=O)NC(CC)(CC)C3=O)cc(=O)oc2c1 the results were H5N1 CPE inactive.
Screening O=C(Nc1ccccn1)C12CC3CC(CC(C3)C1)C2 returned H5N1 CPE 4.1.
Cc1ccc(-c2nnc(SCC(=O)n3c4c(c5ccccc53)CCCC4)o2)cc1 was read as H5N1 CPE 0.1.
Screening CC1CC(C)CN(C(=O)CCCn2c(=S)[nH]c3ccccc3c2=O)C1 (stereo unspecified) returned H5N1 CPE inactive.
Screening Cc1ccc(NC(=O)N2CCC(O)(c3cccnc3)CC2)cc1 returned H5N1 CPE inactive.
For COc1ccc(C2CC3(CC(C)(C)NC(=O)N3)Oc3cc(O)ccc32)cc1 (stereo unspecified) the results were H5N1 CPE inactive.
Screening CCN(CC)c1ccc(NC(=O)/C=C\c2ccccc2Cl)cc1 returned H5N1 CPE 1.0.
For Cc1ccc(S(=O)(=O)c2c(N)n(Cc3ccco3)c3nc4ccccc4nc23)cc1 the results were H5N1 CPE 5.9.
For Cn1c(O)c(C=NC2CC(C)(C)NC(C)(C)C2)c(=O)n(C)c1=O the results were H5N1 CPE inactive.
Cc1ccc2nc(Nc3nc(CSc4nnnn4-c4ccccc4)cc(=O)[nH]3)nc(C)c2c1 was read as H5N1 CPE 2.4.
CCC(C(=O)Nc1ccccc1C(=O)N1CCCC1)N1C(=O)c2ccccc2C1=O (stereo unspecified) was read as H5N1 CPE inactive.
For CCN(CC)C(=O)COc1ccc2oc(C)c(C(=O)OC(C)C)c2c1 the results were H5N1 CPE 2.9.
For COc1ccc(NC(=O)COc2nc(N(C)C)nc(N(C)C)n2)cc1 the results were H5N1 CPE 0.3.
COCCSc1ccccc1C(=O)NCC1CCCO1 (stereo unspecified) was read as H5N1 CPE inactive.
CN(C)C=NC(=O)/C(C#N)=C1\CCc2ccccc2N1 was read as H5N1 CPE 5.8.
`CCSc1nnc(NC(=O)C2CCCN(S(=O)(=O)c3cnc[nH]3)C2)s1` (stereo unspecified) gave H5N1 CPE 0.7.
OC1CCN(C(c2ccc3ncccc3c2)c2nnnn2C2CCCCC2)CC1 (stereo unspecified) was read as H5N1 CPE 0.9.
`O=C(CCCN1C(=O)c2ccccc2C1=O)Nc1c2c(nc3c1CCC3)CCC2` gave H5N1 CPE 2.2.
Cc1ccccc1OCCN1C(=O)NC2(CCCc3ccccc32)C1=O (stereo unspecified) was read as H5N1 CPE inactive.
For O=[N+]([O-])c1cc(/C=N/O)ccc1SCc1ccccc1 the results were H5N1 CPE inactive.
For CCN1CCN(C(=O)Cn2ncc3ccsc3c2=O)CC1 the results were H5N1 CPE 0.6.
For CCOC(=O)c1ccc(NC(=O)Nc2c(C)nn(C)c2C)cc1 the results were H5N1 CPE 0.7.
For COc1ccccc1NC(=S)NCCc1ccccc1 the results were H5N1 CPE 1.3.
`COc1ccc(Cc2nnc(NC(=O)CSc3ccc(C)cc3)s2)cc1OC` gave H5N1 CPE 0.2.
Screening CC(=O)Oc1ccc(Oc2ccc(-c3noc(C)n3)cc2)cc1 returned H5N1 CPE inactive.
`O=C(CSc1nc(O)c(Cc2ccccc2)c(=O)n1-c1ccccc1)N1CCOCC1` gave H5N1 CPE 0.6.
Cc1c(/C=N/n2cnnc2)c2ccccc2n1CCOc1ccc(Cl)cc1 was read as H5N1 CPE 0.4.
`Cc1ccc(/C(N)=N/OC(=O)c2ccc(F)cc2)cc1` gave H5N1 CPE 1.1.
CCNC(=O)N1CCOCC1 was read as H5N1 CPE 0.0.
For COc1ccc(N2CCN(CC(=O)Nc3ccc(-n4cnnn4)cc3)CC2)cc1 the results were H5N1 CPE inactive.
Screening CCOc1ccc(NC(=O)N(C2CCCCC2)C(C)c2ccncc2)cc1 (stereo unspecified) returned H5N1 CPE 1.9.
`COc1ccc(/C(O)=C2\C(=O)C(=O)N(c3cc(C)on3)C2c2cccc(OC)c2OC)cc1C` (stereo unspecified) gave H5N1 CPE inactive.
For COc1ccc2nc(-n3c(C)ccc3C)sc2c1 the results were H5N1 CPE inactive.
CC1CCCCN1C(=O)COC(=O)c1n[nH]c2ccccc12 (stereo unspecified) was read as H5N1 CPE 0.5.
O=C(CCCOc1ccc(Cl)cc1Cl)Nc1cccnc1 was read as H5N1 CPE inactive.
For CNCCOc1ccccc1-c1ccccc1 the results were H5N1 CPE inactive.
For Cn1c(=O)[nH]c(=O)c2c1nc(Sc1ccccc1)n2CCc1ccccc1 the results were H5N1 CPE 0.6.
For Cc1ccc(OCC(=O)N2CCN(C(=O)CCC3CCCC3)CC2)cc1 the results were H5N1 CPE inactive.
CCN(CC)S(=O)(=O)c1ccc(C(=O)Nc2nnc(C(C)C)s2)cc1 was read as H5N1 CPE 0.3.
`Cc1ccccc1-c1nc(-c2ccc(NC(=O)c3ccc4c(c3)OCO4)cc2)no1` gave H5N1 CPE 0.3.
CCc1ccccc1N(CC(=O)N1CCN(c2ccc(F)cc2)CC1)S(C)(=O)=O was read as H5N1 CPE 0.8.
For COc1ccc(N2C(=O)C(Cl)=C(NCc3ccccc3)C2=O)cc1 the results were H5N1 CPE inactive.
Screening CCOC(=O)Cn1c(CN(Cc2ccccc2)Cc2ccccc2)nc2c1c(=O)[nH]c(=O)n2C returned H5N1 CPE 0.8.
CCCCn1cnc2c([nH]c3cc(OC)ccc32)c1=O was read as H5N1 CPE inactive.
For Cc1cc(C)nc(SCc2nnc(SCC#N)n2-c2cccc(Cl)c2)n1 the results were H5N1 CPE 1.5.
`Cc1ccc(F)cc1NC(=O)Cc1ncc(C(F)(F)F)cc1Cl` gave H5N1 CPE 1.2.
Screening COc1ccccc1CNC(=O)COC(=O)c1n[nH]c2ccccc12 returned H5N1 CPE inactive.
For CC(=NCc1cccnc1)c1c(O)n(C2CCCCC2)c(=O)[nH]c1=O the results were H5N1 CPE 2.6.
For CCCc1cc(N2CCN(c3ccccn3)CC2)n2nc(C)c(-c3ccccc3)c2n1 the results were H5N1 CPE 0.3.
`CCCCc1nc(N2CCOCC2)c(C#N)c2c1COC(C)(C)C2` gave H5N1 CPE 0.8.
O=c1c2ccccc2nc(N/N=C/c2ccc(O)cc2)n1O was read as H5N1 CPE inactive.
For COc1ccc(S(=O)(=O)N(C)CC(=O)NCc2ccco2)cc1 the results were H5N1 CPE inactive.
`CCCCN(C)C(=O)c1ccc2c(c1)N(CC)C(=O)c1ccccc1S2(=O)=O` gave H5N1 CPE 1.1.
O=C1CCC(=O)N1OCCCOc1ccc2c(c1)CCC2 was read as H5N1 CPE inactive.
`Cc1ccc(S(=O)(=O)c2cnc(-c3ccccc3)nc2Oc2ccccc2)cc1` gave H5N1 CPE 2.0.
`CCOC(=O)c1nnn(-c2ccccc2C#N)c1C` gave H5N1 CPE inactive.
For NNC(=O)c1ccc([N+](=O)[O-])c(CS(=O)(=O)c2ccc(Cl)cc2)c1 the results were H5N1 CPE 0.8.
For CC(CNCC1CCCO1)COc1ccccc1 (stereo unspecified) the results were H5N1 CPE inactive.
Screening C1=C(c2ccccc2)CCN(c2nc3ccccc3n3cnnc23)C1 returned H5N1 CPE 5.6.
`Cc1ccc(NC(=S)NCc2cccs2)c(C)c1` gave H5N1 CPE inactive.
`Cc1nn(CC(=O)NCc2ccc(OC(C)C)cc2)c(=O)c2cc3occc3n12` gave H5N1 CPE 1.7.
For CC(C)(C)c1ccc(C(=O)c2c[nH]c(C(=O)NCc3ccco3)c2)cc1 the results were H5N1 CPE inactive.
Screening O=C1CN(C(=O)COC(=O)CCC(=O)c2ccc3c(c2)OCCO3)c2ccccc2N1 returned H5N1 CPE inactive.
`Cc1nn(-c2cccc(C(F)(F)F)c2)c(Cl)c1/C=N/n1cnnc1` gave H5N1 CPE inactive.
For Cc1ccccc1Cn1cc(S(=O)(=O)CC(=O)Nc2nccs2)c2ccccc21 the results were H5N1 CPE 2.5.

Pulled by compound from the list above, 3 records:
Screening C1=C(c2ccccc2)CCN(c2nc3ccccc3n3cnnc23)C1 returned H5N1 CPE 5.6.
`Cc1nn(-c2cccc(C(F)(F)F)c2)c(Cl)c1/C=N/n1cnnc1` gave H5N1 CPE inactive.
For NNC(=O)c1ccc([N+](=O)[O-])c(CS(=O)(=O)c2ccc(Cl)cc2)c1 the results were H5N1 CPE 0.8.

Further compounds follow:
Screening Cn1c(=O)[nH]c(=O)c2c1nc(SCC(=O)O)n2CCc1ccccc1 returned H5N1 CPE inactive.
Screening COc1ccc(N=c2oc3c(OC)cccc3cc2C(=O)NCc2ccco2)c(OC)c1 returned H5N1 CPE 0.1.
For COc1ccccc1N1CCN(C(=O)N2CCOCC2)CC1 the results were H5N1 CPE inactive.
`CC(=O)Nc1ccc(S(=O)(=O)N2CCN(C(C)CCc3ccccc3)CC2)cc1` (stereo unspecified) gave H5N1 CPE inactive.
Screening CCOc1ccccc1/C=c1\sc2ncnn2c1=O returned H5N1 CPE inactive.
Screening O=C(C1CCC1)N1CCc2cc(S(=O)(=O)NCCN3CCN(c4ccccc4F)CC3)ccc21 returned H5N1 CPE inactive.
Cc1cc(C(F)F)n2nc(C(=O)Nc3ccccc3Br)nc2n1 was read as H5N1 CPE inactive.
CC(CNC(=O)C1CCCCC1C(=O)O)c1ccccc1 (stereo unspecified) was read as H5N1 CPE inactive.
For O=C(CSc1nnc(NC2CCCCC2)s1)Nc1ccc(N2CCOCC2)cc1 the results were H5N1 CPE 0.6.
`Cc1cccc(Nc2ncc3c(n2)CC(C)CC3=O)c1` (stereo unspecified) gave H5N1 CPE 0.7.
Screening CCn1cc(CNC(=O)c2cc(-c3ccccc3OC)nc3ccccc23)c(C)n1 returned H5N1 CPE inactive.
For Cc1ccc(S(=O)(=O)N(C)CC(O)Cn2c3ccccc3c3ccccc32)cc1 (stereo unspecified) the results were H5N1 CPE inactive.
For CCS(=O)(=O)c1ccc2oc(Nc3cc(C)cc(C)c3)nc2c1 the results were H5N1 CPE inactive.
CCN1CCN(C(=O)C2CCN(Cc3nc(-c4cccc(Cl)c4)oc3C)CC2)CC1 was read as H5N1 CPE inactive.
CC1CCCN(Cc2cccc(Oc3ccccc3)c2)C1 (stereo unspecified) was read as H5N1 CPE inactive.
`COC(=O)c1ccccc1NC(=O)C1CCCN(S(=O)(=O)c2ccccc2)C1` (stereo unspecified) gave H5N1 CPE 1.1.
`Cc1ccccc1C(=O)Nc1cccc(NC(=S)NC(=O)c2cccs2)c1` gave H5N1 CPE inactive.
For Oc1c(Br)cc(C2N=C(c3ccccc3)NO2)cc1Br (stereo unspecified) the results were H5N1 CPE inactive.
O=C(CCn1nnc2ccccc21)Nc1nnc(COc2ccccc2F)s1 was read as H5N1 CPE inactive.
Screening Cc1ccc(Nc2cc(C)nc(N3CCOCC3)n2)cc1 returned H5N1 CPE 2.4.
`CCOc1ccc(S(=O)(=O)Nc2cc(OC)c(OC)cc2C(=O)O)cc1` gave H5N1 CPE inactive.
For Cc1cc(-c2c(C)[nH]n(-c3ccc(Cl)cc3)c2=O)n(-c2ccccc2)n1 the results were H5N1 CPE inactive.
Screening CCOC(=O)N1CCN(C(=O)c2cn(CC)c3cc(N4CCN(C)CC4)c(F)cc3c2=O)CC1 returned H5N1 CPE 0.9.
Screening COc1ccc(CCNC(=O)c2ccc(N3CCCC3=O)cc2)cc1 returned H5N1 CPE inactive.

7 compounds already listed, sorted by SMILES length, lowest first:
CC1CCCN(Cc2cccc(Oc3ccccc3)c2)C1 (stereo unspecified) was read as H5N1 CPE inactive.
Screening Cc1ccc(Nc2cc(C)nc(N3CCOCC3)n2)cc1 returned H5N1 CPE 2.4.
For Oc1c(Br)cc(C2N=C(c3ccccc3)NO2)cc1Br (stereo unspecified) the results were H5N1 CPE inactive.
Screening COc1ccc(CCNC(=O)c2ccc(N3CCCC3=O)cc2)cc1 returned H5N1 CPE inactive.
`CCOc1ccc(S(=O)(=O)Nc2cc(OC)c(OC)cc2C(=O)O)cc1` gave H5N1 CPE inactive.
`COC(=O)c1ccccc1NC(=O)C1CCCN(S(=O)(=O)c2ccccc2)C1` (stereo unspecified) gave H5N1 CPE 1.1.
For Cc1cc(-c2c(C)[nH]n(-c3ccc(Cl)cc3)c2=O)n(-c2ccccc2)n1 the results were H5N1 CPE inactive.

The list continues.
Screening Clc1ccc(Oc2nc(Oc3ccc(Cl)cc3)nc(N3CCOCC3)n2)cc1 returned H5N1 CPE 1.3.
`CCOc1ccc2[nH]c(=O)c(CN(Cc3ccc(F)cc3)C(=O)c3ccco3)cc2c1` gave H5N1 CPE 0.4.
For COC(=O)c1ccc(NC(=O)c2ccc(F)cc2)o1 the results were H5N1 CPE inactive.
`COc1ccc(C2NC3=C(CCCC3)C(C#N)(C#N)C2(C#N)C#N)cc1` (stereo unspecified) gave H5N1 CPE 5.3.
For O=C(NCCOc1ccccc1)C1CCCN1C(=O)c1cccs1 (stereo unspecified) the results were H5N1 CPE 0.6.
Screening COC(=O)CSc1ncccc1-c1nc2ccccc2[nH]1 returned H5N1 CPE 1.7.
Screening CCOC(=O)c1ccc(N2C(=O)CC(N3CCC(O)(c4ccc(Br)cc4)CC3)C2=O)cc1 (stereo unspecified) returned H5N1 CPE inactive.
For CCn1c(SCC(=O)Nc2ccc(S(N)(=O)=O)cc2)nnc1-c1cccc(OC)c1 the results were H5N1 CPE 0.1.
Cc1nc2ncnn2c(N2CCN(C(=O)c3cccc(F)c3)CC2)c1Cc1ccccc1 was read as H5N1 CPE 2.0.
Screening C=CCNc1cc(C(F)(F)F)nc(-c2ccccn2)n1 returned H5N1 CPE 0.5.
